Screening results: PubChem, Vanderbilt University
GIRK2 act: opens human GIRK2 potassium channels; HEK293-GIRK2 thallium flux, Thallos fluorescence; calls only for hits at 25 µM; P48051; 63,000 compounds, 0.05% hits;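 active = among the strongest 0.2% of first-round signals and kept after retests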;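 also: first round at about 10 µM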
Target sequence (P48051 whole entry, looked up): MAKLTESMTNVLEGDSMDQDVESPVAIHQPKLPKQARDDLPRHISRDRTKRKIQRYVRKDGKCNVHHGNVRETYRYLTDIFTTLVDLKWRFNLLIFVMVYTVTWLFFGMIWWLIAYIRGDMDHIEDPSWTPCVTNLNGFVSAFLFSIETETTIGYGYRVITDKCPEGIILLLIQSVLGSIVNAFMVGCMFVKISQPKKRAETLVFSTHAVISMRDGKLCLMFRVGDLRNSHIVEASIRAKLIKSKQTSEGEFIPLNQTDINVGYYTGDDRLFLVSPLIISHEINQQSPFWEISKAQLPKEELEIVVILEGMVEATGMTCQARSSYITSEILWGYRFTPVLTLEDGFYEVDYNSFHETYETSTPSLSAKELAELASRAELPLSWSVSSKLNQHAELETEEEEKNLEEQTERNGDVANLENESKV
Calls only; i = inactive.

Start of the listing, in advance:
SMILES	GIRK2 act
CCN(CC)S(=O)(=O)c1ccc2nc(N3CCN(c4cc(C)ccc4C)CC3)cnc2c1	i
COc1ccc(C(=O)N2CCN(CC(=O)c3ccco3)CC2)cc1OC	i

Main list, repeating the preview:
SMILES	GIRK2 act
CCN(CC)S(=O)(=O)c1ccc2nc(N3CCN(c4cc(C)ccc4C)CC3)cnc2c1	i
COc1ccc(C(=O)N2CCN(CC(=O)c3ccco3)CC2)cc1OC	i
COCC(C)Nc1ncc([N+](=O)[O-])c(N)n1 (centres undefined)	i
CC(C)OCC(O)Cn1c(N2CCCCCC2)nc2c1c(=O)n(C)c(=O)n2C (centres undefined)	i
COc1ccc(NC(=O)c2ccc(Oc3nccnc3N3CCOCC3)cc2)c(OC)c1	i
O=C(CCn1cncn1)N1CCN(C(=O)N2CCOCC2)CC1	i
CN(CCCC(=O)NCCCO)S(=O)(=O)c1ccc2c(c1)C(=O)c1ccccc1C2=O	i
O=C(Cc1ccccc1Cl)NC1CC(=O)N(C2CC2)C1 (centres undefined)	i
CCOC(=O)c1ccc(NC(=O)CN2CCc3[nH]c4ccccc4c(=O)c3C2)cc1	i
CCOc1cc(C(=O)Nc2cc3c4c(c2)CCN4C(=O)CC3)cc(OCC)c1OCC	i
N#Cc1nc(-c2ccc(F)cc2)oc1N1CCN(C(=O)c2ccc(Cl)cc2)CC1	i
COC(=O)c1sccc1S(=O)(=O)NCC1CCS(=O)(=O)C1 (centres undefined)	i
CSc1nnc(CNC(=O)c2ccc(C(C)(C)C)cc2)o1	i
CCOC(=O)c1sc2ccccc2c1S(=O)(=O)Nc1cccc(F)c1	i
COC(=O)c1c(NCc2ccccc2C(F)(F)F)c2cccc(Cl)c2[nH]c1=O	i
C=CCn1c(=O)c2ccc(C(=O)NC(C)CC)cc2n2c(=O)n(CC(=O)NCc3ccccc3)nc12 (centres undefined)	i
Cc1ccc(C(O)CNC(=O)C(=O)Nc2cc3c4c(c2)CCC(=O)N4CCC3)o1 (centres undefined)	i
COc1cc(/C=C/C(=O)N2CCC(CSc3nc(C)cs3)CC2)cc(OC)c1OC	i
CC(=O)NC1=NN(C(C)=O)C2(S1)C(=O)N(Cc1ccccc1)c1c(Cl)cccc12 (centres undefined)	i
COc1ccc(NC(=O)Cc2nnc(Nc3ccccc3)s2)cc1OC	i
CC(=O)Nc1ccc(S(=O)(=O)NCCCN2CCN(c3ccccc3)CC2)c(C)c1	i
O=S(=O)(Cc1ccc(C(F)(F)F)cc1)NCC1(CO)CC1	i
COc1ccc(Cl)cc1NC(=O)N1CC(=O)Nc2ccccc21	i
Cc1cc(C(=O)Nc2nc3c(s2)CN(C(=O)c2cc(-c4ccccc4)n[nH]2)CC3)no1	i
CCOc1ccc(Br)cc1S(=O)(=O)N(CC)C1CCCCC1	i

(further entries)
SMILES	GIRK2 act
O=C(c1cc2cc([N+](=O)[O-])ccc2s1)N(CCN1CCOCC1)c1nc2ccc(F)cc2s1	i
O=C(Cc1cccs1)Nc1nc(C(=O)NCc2ccc(OC(F)(F)F)cc2)co1	i
COc1ccc(OC)c(-c2cc3ccc(OC(=O)N4CCOCC4)cc3oc2=O)c1	i
Cc1cccc(CC(=O)NCC(O)C2CCCCC2)c1 (centres undefined)	i
CN(C)C(CNC(=O)C(=O)Nc1ccc(F)c(Cl)c1)c1cn(C)c2ccccc12 (centres undefined)	i
CN(C)CC1CSCCCN1S(=O)(=O)c1ccccc1F (centres undefined)	i
CCN(C(=O)c1nnn(-c2ccc(Br)cc2)n1)c1ccccc1	i
CCOC(=O)c1c(NCc2ccccc2OC)c2cccc(Cl)c2[nH]c1=O	i
COc1ccc(/C=C/C(=O)c2cc(Br)ccc2O)c(OC)c1	i
CCc1ccc(NC(=O)c2ccc(-n3nncc3C)cc2)cc1	i
COCCNC(=O)N1CCN(c2nc3ccc(SC)cc3s2)CC1	i
CCOC(=O)c1ccccc1NC(=O)Cn1nc2c(Oc3ccc(C)cc3)nccn2c1=O	i
CC(=O)NS(=O)(=O)c1ccc(NC(=O)C2CSCCC(=O)N2)cc1 (centres undefined)	i
O=C(c1cc2ccccc2o1)N1CCC2(CC1)OCCCO2	i
COC(=O)c1ccc2c(=O)n(Cc3ccc(C(=O)NCc4ccc(Cl)cc4)cc3)c(=S)[nH]c2c1	i
CS(=O)(=O)Nc1cccc(NC(=O)C2CN(c3nc4c(C(F)(F)F)cccc4s3)C2)c1	i
COc1cc(OC)cc(C(=O)Nc2noc3nc(C)ccc23)c1	i
O=S(=O)(Cc1cccc(Cl)c1)NCC(c1ccc(F)cc1)N1CCOCC1 (centres undefined)	i
Cc1onc(-c2ccccc2Cl)c1C(=O)N1CCN(C2=NN=C(c3ccccc3)CS2)CC1	i
COc1ccccc1N1CCN(C(=O)Cn2nc3ccc(-c4ccccc4)nn3c2=O)CC1	i
COc1ccc(C2C(C(=O)Nc3ccccc3OC)=C(C)Nc3nc(C)nn32)cc1 (centres undefined)	i
COc1ccc(Cl)cc1NCCCn1c(C)cn2c3c(=O)[nH]c(=O)n(C)c3nc12	i
O=C(NCCC1=CCCCC1)c1ccc(Oc2nccnc2N2CCCCC2)cc1	i
O=C(NCc1cccs1)c1cn(-c2cccc(Cl)c2)nn1	i
COc1ccc(CNC(=O)CC2CCCCN2S(=O)(=O)c2ccc(Cl)cc2)cc1 (centres undefined)	i

Continuation:
SMILES	GIRK2 act
O=S(=O)(c1cccnc1)N1CCCC(c2nnc(C(F)(F)F)o2)C1 (centres undefined)	i
COc1ccc(NC(=O)Cn2cnc3sc(-c4nc(-c5cccc(C)c5)no4)c(C)c3c2=O)cc1	i
Cn1nnn(-c2ccc(NC(=O)Cc3cccc4ccccc34)cc2)c1=O	i
CCOc1cc(S(=O)(=O)N(C)C2CCCCC2)ccc1F	i
C=CCc1c(C)nc2sc(C(=O)Nc3ccccc3C)c(N)c2c1C	i
O=C(NCCc1ccc(Cl)cc1)C1CCN(c2nc3ccccc3[nH]c2=O)CC1	i
O=C(CN1CCC(Cn2cnc3ccccc32)CC1)Nc1nccs1	i
O=C(NCC1CCN(c2ncccn2)CC1)C(=O)Nc1cc2c3c(c1)CCC(=O)N3CCC2	i
C=CCn1c(=O)c2c(nc(N/N=C(/C)c3ccc(OC)cc3)n2C)n(C)c1=O	i
COc1ccccc1-c1noc(C2CN(C(=O)NCc3ccc(F)cc3)C2)n1	i
Cc1ccc(-c2noc(-c3ccc(=O)n(CC(=O)N4CCN(c5ccccc5F)CC4)c3)n2)cc1	i
COc1cc(C)c(C)cc1S(=O)(=O)N1CCC(C(N)=O)CC1	i
COc1ccc(Cl)cc1C(=O)N1CCN(CCn2cccn2)CC1	i
Cc1ccc(S(=O)(=O)N2CCC(C(=O)Nc3nc4ccc(Cl)cc4s3)CC2)cc1	i
COCC(=O)N1N=C(c2c(-c3ccccc3)c3ccccc3[nH]c2=O)CC1c1ccc(C)cc1 (centres undefined)	i
COc1ccc2c(c1)CCN(C(=O)c1ccc(OCc3nc(-c4ccco4)cs3)cc1)C2	i
Cc1nc(-n2cccc2)sc1C(=O)N1CCN(Cc2nc3ccccc3[nH]2)CC1	i
CCOc1ccc(-c2noc(-c3cn(CC)c4ccc(F)cc4c3=O)n2)cc1	i
CCc1ccc(N2C(=O)N(c3ccc([N+](=O)[O-])cc3)C3CS(=O)(=O)CC32)cc1 (centres undefined)	i
CCc1ccc(N(C)S(=O)(=O)c2ccsc2C(=O)Nc2ccc3c(c2)OCCO3)cc1	i
Cc1noc(-c2ccc(=O)n(Cc3nc(-c4ccc(OC(F)(F)F)cc4)no3)c2)n1	i
COc1cccc(N2CCN(C(=O)C3CCN(c4ncnc5c4sc4ncccc45)CC3)CC2)c1	i
COc1cc2cc(CNc3ccccc3)c(=O)n(CC(=O)Nc3ccc(C)c(C)c3)c2cc1OC	i
COc1ccc(-c2c(C)noc2-c2ccc(OC)cc2OC(=O)c2ccco2)cc1	i
CCC(C(=O)NCCC(O)c1cc(C)oc1C)c1ccccc1 (centres undefined)	i

Quoted at random: three entries already listed
SMILES	GIRK2 act
O=C(NCCc1ccc(Cl)cc1)C1CCN(c2nc3ccccc3[nH]c2=O)CC1	i
C=CCn1c(=O)c2c(nc(N/N=C(/C)c3ccc(OC)cc3)n2C)n(C)c1=O	i
COc1cc2cc(CNc3ccccc3)c(=O)n(CC(=O)Nc3ccc(C)c(C)c3)c2cc1OC	i

Later entries.
SMILES	GIRK2 act
CCCCC/C=C/C=C1/C=CC(=O)C1C/C=C\CCCC(=O)O (centres undefined)	i
COc1cc(-c2noc(-c3cc(C4CC4)[nH]n3)n2)cc(OC)c1OC	i
COc1cccc(COc2c[nH]c(C(=O)N3CCN(c4ccccn4)CC3)cc2=O)c1	i
CC(=O)c1cccc(NC(=O)CCCSc2nc(C)cc(C(F)(F)F)c2C#N)c1	i
O=S(=O)(c1ccc(OC(F)(F)F)cc1)N(Cc1ccsc1)C1CC1	i
COc1cc(/C=C/c2ccncc2)ccc1OC(=O)c1ccc2c(c1)OCO2	i
CC(C)Oc1ccc(-c2noc(-c3cn(C)c4ccccc4c3=O)n2)cc1	i
CCC(=O)Nc1c(-c2ccccn2)nsc1C(=O)N1CCC(Cc2ccccc2)CC1	i
CC(O)C12CC3CC(CC(C3)C1)C2 (centres undefined)	i
NC(=O)CSc1nnc(N2CCN(C(=O)c3ccc(Cl)c([N+](=O)[O-])c3)CC2)s1	i
O=C(c1ccccc1)N1CCCc2ccc(NS(=O)(=O)c3ccc(Cl)cc3)cc21	i
CC(Cc1cccs1)NC(=O)C1c2ccccc2Oc2ccccc21 (centres undefined)	i
COc1cc(NC(=O)NC2CCCC(OC(=O)Nc3ccccc3)C2)cc(OC)c1 (centres undefined)	i
COc1ccc(C2C(=C(O)c3cccc(OC)c3)C(=O)C(=O)N2c2ccccn2)cc1 (centres undefined)	i
Cc1ccc(-c2ccc(S(=O)(=O)N3CCCCC3)cc2)cc1	i
CC(=O)NC1=NN(C(C)=O)C2(S1)C(=O)N(CCOc1ccccc1C)c1ccc(C)cc12 (centres undefined)	i
CN1CCC(n2cnc(-c3ccc(F)cc3)c2-c2ccnc(NCCO)n2)CC1	i
Cn1cc(C2=C(c3c4n(c5ccccc35)CCCCC4)C(=O)NC2=O)c2ccccc21	i
COCCNC(=O)c1nnn(-c2ccc(NC(=O)c3ccc(Br)o3)cc2)n1	i
CC(=O)Nc1nnc(-c2ccsc2)o1	i
Cc1nn(-c2ccccc2)c2ncc(C(=O)N3CCN(c4ccccc4F)CC3)c(Cl)c12	i
CCc1nc(N)n(CC(=O)Nc2ccc(Br)cc2)c(=O)c1C	i
CCOC(=O)c1ccc(NC(=O)c2nnn(-c3cccc(OC)c3)c2C)cc1	i
CCOC(=O)c1oc2cc(OCC#N)ccc2c(=O)c1-c1ccc2c(c1)OCCO2	i
COc1ccc(OC)c(C(=O)/C=C/c2ccc(OC)c(OC)c2)c1	i

The results go on:
SMILES	GIRK2 act
N#Cc1cccc(C(=O)NCC#CCN2CCCCC2)c1	i
CC(=O)Nc1ccc(SCCCC(=O)Nc2ccc(F)c(Cl)c2)nn1	i
Cn1cc(C(=O)N2CCN(c3ccccc3Cl)CC2)nn1	i
COc1ccccc1NC(=O)c1ccc(CNS(=O)(=O)c2cc(C)ccc2C)cc1	i
NS(=O)(=O)c1ccc(NC(=O)C2CCCN(c3ccc(-c4ccco4)nn3)C2)cc1 (centres undefined)	i
COc1cc(Nc2ncc(-c3ccccc3)o2)cc(OC)c1OC	i
O=C(Nc1cc(C2CC2)nn1-c1nc(-c2ccccc2)cc(=O)[nH]1)c1cc(-c2ccco2)on1	i
Cc1ccc2oc3c(c(=O)c2c1)C(c1cccc([N+](=O)[O-])c1)N(c1nccs1)C3=O (centres undefined)	i
CCOC(=O)CN1N=C(c2ccc(F)cc2)Cn2c1nc1c2c(=O)n(CC(=O)OCC)c(=O)n1C	i
Cc1csc(COc2ccc(C(=O)NCCn3nc(-c4ccco4)ccc3=O)cc2)n1	i
COc1cccc(NC(=O)Cn2cc(S(=O)(=O)c3ccccc3)c(=O)c3ccccc32)c1	i
CCOCCCNC(=O)c1cn(C)nc1S(=O)(=O)N1CCN(c2ccc(Cl)cc2)CC1	i
Cc1cc(OCC(=O)Nc2cc(N3CCCC3)ncn2)ccc1Cl	i
COc1ccc(-c2nc(CCNS(=O)(=O)c3ccc(Cl)cc3)cs2)cc1OC	i
CCCN(CCC)S(=O)(=O)c1ccc(C(=O)N2CCc3ccccc3C2)cc1	i
CCCCC(=O)OC1(C(=O)CO)CCC2C3CCC4=CC(=O)CCC4(C)C3C(O)CC21C (centres undefined)	i
CCCc1nnsc1C(=O)NCc1cc(-c2ccco2)n(C)n1	i
CC(C(=O)O)c1ccc(-c2ccccc2)c(F)c1 (centres undefined)	i
CCCCN1CC(c2nc3ccccc3n2CCCCOc2ccccc2C)CC1=O (centres undefined)	i
CCCOc1nc2c(c(=O)[nH]c(=O)n2C)n1CC(O)COc1ccccc1C (centres undefined)	i
CCOC(=O)CNC(=O)CSc1c(C(C)C)cnc2c1c(=O)n(C)c(=O)n2C	i
O=C(Nc1ccc(F)cc1)N1CCC(COCc2ccccc2)CC1	i
COc1ccc(CNC(=O)N2CC(c3nc(-c4ccncc4)no3)C2)cc1OC	i
Cc1cc(C)cc(N(Cc2cccc(Cl)c2)S(=O)(=O)c2cccn3c(C)nnc23)c1	i
CC(CCc1ccccc1)NC(=O)c1ccc(Oc2nccnc2N2CCOCC2)cc1 (centres undefined)	i

In the list so far, twelve have a thiophene ring, fused or not:
SMILES	GIRK2 act
COC(=O)c1sccc1S(=O)(=O)NCC1CCS(=O)(=O)C1 (centres undefined)	i
CCOC(=O)c1sc2ccccc2c1S(=O)(=O)Nc1cccc(F)c1	i
O=C(c1cc2cc([N+](=O)[O-])ccc2s1)N(CCN1CCOCC1)c1nc2ccc(F)cc2s1	i
O=C(Cc1cccs1)Nc1nc(C(=O)NCc2ccc(OC(F)(F)F)cc2)co1	i
O=C(NCc1cccs1)c1cn(-c2cccc(Cl)c2)nn1	i
COc1ccc(NC(=O)Cn2cnc3sc(-c4nc(-c5cccc(C)c5)no4)c(C)c3c2=O)cc1	i
C=CCc1c(C)nc2sc(C(=O)Nc3ccccc3C)c(N)c2c1C	i
CCc1ccc(N(C)S(=O)(=O)c2ccsc2C(=O)Nc2ccc3c(c2)OCCO3)cc1	i
COc1cccc(N2CCN(C(=O)C3CCN(c4ncnc5c4sc4ncccc45)CC3)CC2)c1	i
O=S(=O)(c1ccc(OC(F)(F)F)cc1)N(Cc1ccsc1)C1CC1	i
CC(Cc1cccs1)NC(=O)C1c2ccccc2Oc2ccccc21 (centres undefined)	i
CC(=O)Nc1nnc(-c2ccsc2)o1	i

Not all compounds are listed, so the mix of outcomes need not match the whole.
